High-throughput results: PubChem BioAssay, National Center for Advancing Translational Sciences (NCATS)
VDR inhibitor = vitamin D3 receptor (human) inhibition. Potency, µM, for the others: max response, negative = inhibition, hits mostly inhibitors. VDR-SRC2-3 peptide fluorescence polarization, 2 h. actives 0.93% (n = 400,000); active means well fitted inhibition curve with a large enough effect; inconclusive means small, poorly fitted or top-dose-only effect, or another doubt; inactive means no such curve, though single readings can be large or run the other way; further: series mostly up to about 120 µM
Target sequence (P11473 whole entry, looked up): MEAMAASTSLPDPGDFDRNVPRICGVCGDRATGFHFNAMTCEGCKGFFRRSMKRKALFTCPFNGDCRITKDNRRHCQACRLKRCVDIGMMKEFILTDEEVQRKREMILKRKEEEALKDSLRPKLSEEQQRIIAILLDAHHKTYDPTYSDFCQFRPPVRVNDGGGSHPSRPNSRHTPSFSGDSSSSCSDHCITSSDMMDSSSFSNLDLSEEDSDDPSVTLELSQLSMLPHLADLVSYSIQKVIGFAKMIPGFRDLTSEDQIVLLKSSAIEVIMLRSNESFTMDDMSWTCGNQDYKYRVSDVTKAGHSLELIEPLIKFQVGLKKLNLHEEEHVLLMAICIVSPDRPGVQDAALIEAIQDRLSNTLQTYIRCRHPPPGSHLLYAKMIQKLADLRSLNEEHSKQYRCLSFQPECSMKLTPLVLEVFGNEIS
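After 23 nl compound addition and a short centrifugation, plates sat for 2 hours at ambient temperature; polarization of fluorescence then indicated loss of VDR binding to peptide SRC2-3.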
* = called active by the depositor; ? = inconclusive; & = joins results of further samples. On the % scale 0 is the no-effect control and ±100 the full control effect; potency means the concentration at half of the fitted maximal effect.

VDR inhibitor	canonical_smiles
7%	COc1ccc(C2NC(=O)N(C)C3=C2C(=O)N(c2ccc(Br)cc2)C3)cc1 (stereo not given)
6%	Cc1ccc(NC(=O)CN2CCCN(Cc3cc(C)ccc3C)S2(=O)=O)c(Cl)c1
5%	O=C(O)CC12CC3CC(C1)CC(n1ncc(NCc4ccccc4)c(Cl)c1=O)(C3)C2
-7%	CCC(CC)c1nnc(NC(=O)CCN2C(=O)c3ccccc3C2=O)s1
20%	COCCNC(=O)c1nn(-c2ccc(Cl)cc2)nc1CO
4%&-12%	CCC(C)NC(=O)C1CCC(CNS(=O)(=O)c2cccc3nsnc23)CC1 (stereo not given)
1%	COc1ccc(S(=O)(=O)NC(C)C(=O)NCc2ccccn2)cc1Cl (stereo not given)
-28%	COCCCNC(=O)Cc1ccc(S(=O)(=O)N2CCOCC2)s1

(further entries)
VDR inhibitor	canonical_smiles
-23%	O=C(Cc1ccc(S(=O)(=O)N2CCOCC2)s1)Nc1ccccc1Br
16%	CCOC(=O)c1ccc(NC(=O)c2cnc(N3CCCC3)nc2C)cc1
-14%	CCOc1c(Br)cc(C2C=C(C(=O)O)Nc3ncnn32)cc1OC (stereo not given)
-17%	CCOC(=O)C1=C(O)/C(=C/c2cc(OC)c(O)c(OC)c2)SC1=Nc1ccc(OC)cc1
12%	CCOc1cc(/C=C/C(=O)NCCc2ccc(S(N)(=O)=O)cc2)ccc1OCC(C)C
22%	O=C(O)C1CCC(CNCc2ccncc2)CC1 (stereo not given)
7%	Cc1cc(=O)oc2ccc(OCc3ccccc3)cc12
5%	COc1ccccc1C(=O)Oc1cc(N)n(S(=O)(=O)c2ccc(C)cc2)n1

Grouped by structure, those above with bromine (3)
VDR inhibitor	canonical_smiles
7%	COc1ccc(C2NC(=O)N(C)C3=C2C(=O)N(c2ccc(Br)cc2)C3)cc1 (stereo not given)
-23%	O=C(Cc1ccc(S(=O)(=O)N2CCOCC2)s1)Nc1ccccc1Br
-14%	CCOc1c(Br)cc(C2C=C(C(=O)O)Nc3ncnn32)cc1OC (stereo not given)

New compounds follow:
VDR inhibitor	canonical_smiles
11%	O=c1oc(C2(O)CCCCC2)cc2ccccc12
4%	COc1ccc(/C=N/Nc2cc(C)nc(N3CCOCC3)n2)cc1OC
-7%	Cc1ccc(N(CC(=O)N2CCCCCC2)S(=O)(=O)c2ccccc2)cc1
-21%	CC1CCCC(NC(=O)c2cc(S(=O)(=O)N3CCCCC3)ccc2Cl)C1C (stereo not given)
4%	COc1cccc(C(=O)NNC(=O)c2ccc3ccccc3c2)c1
5%	Cc1cccc(NC2SC(=O)N(CC(=O)O)C2=O)c1 (stereo not given)
14%	CN1CCN(Cc2c(O)ccc3cc(-c4ccc(Cl)cc4)c(=O)oc23)CC1
0%	Cc1ccc2cccc(N)c2n1

Following part
VDR inhibitor	canonical_smiles
-17%	COc1cccc(CN(C(=O)CN2C(=O)c3ccccc3S2(=O)=O)C(C(=O)NCC2CCCO2)c2ccco2)c1 (stereo not given)
-4%	CCN(CC)S(=O)(=O)c1cc(C(=O)Nc2ccccn2)ccc1C
0%&4%&-6%	COc1ccccc1N1CCN(CCCCNC(=O)c2ccc3ccccc3c2)CC1
-4%	CCCN1CCC(NC(=O)CCc2nnc(Cc3cc(OC)ccc3OC)o2)CC1
-1%	COc1ccc(F)cc1CN1CCN(C(=O)CCC(=O)Nc2nnc(CC(C)C)s2)CC1
13%	CN(C)c1cccc(C(=O)OCC(=O)c2ccc[nH]2)c1
-14%	COC(=O)[C@]1(C)N[C@H](CN(C)S(=O)(=O)c2ccc(F)cc2)[C@@H]2C(=O)N(C)C(=O)[C@@H]21
2%	Cc1cccc(-c2nnc(SCC(=O)O)n2Cc2ccccc2)c1

New compounds follow:
VDR inhibitor	canonical_smiles
-5%	CCc1nnc2cccc(Cl)n12
2%	Cn1c(SCc2cccnc2)nnc1-c1c[nH]c2ccccc12
-1%	CCN(C(=O)COC(=O)CCc1ccccc1)c1ccccc1
-27%	Cn1c(=O)n(C)c2cc([N+](=O)[O-])c(N3CCN(C(=O)c4cccc(F)c4)CC3)cc21
-3%	Cc1cc(C)n(CCc2nc3c4ccccc4nc(N4CCN(c5ccc(F)cc5)CC4)n3n2)n1
19%	Cc1ccc(C(=O)OCCn2cc(C#N)c(=O)[nH]c2=O)cc1
-13%	CCN1C(=O)[C@H]2[C@@H](c3ccc(-c4ccc(OC)cc4)c(OC)c3)N[C@@](Cc3ccccc3)(C(=O)OC)[C@H]2C1=O
-13%	N#Cc1c(NC(=O)C2CC2)sc2c1CCCCC2

Following part.
VDR inhibitor	canonical_smiles
4%	CCc1ccc(NC(=O)c2ccc(F)c(S(=O)(=O)N3CCc4ccccc4C3)c2)cc1
17%	C#CCOCCOCCOCCNc1nc(N2CCN(C(=O)[C@H](CC(N)=O)n3cc(C(N)[C@@H](C)CC)nn3)CC2)nc(N2CCN(C(=O)[C@H](CCC(=O)O)n3cc([C@@H](N)CCCCN)nn3)CC2)n1 (stereo not given in full)
11%	COc1ccccc1NC(=O)C(=O)NCc1ccccc1Cl
5%	COc1ccc2c(c1)C(=O)N1[C@H]3c4cc(Cl)ccc4OC[C@@H]3[C@H](c3ccccc3)[C@]1(C)C(=O)N2
-6%	CCOCCCNC(=O)CN1C(=O)C(CC)Oc2ccccc21 (stereo not given)
-6%	CCOc1ccccc1NC(=O)C1CCCCN1S(=O)(=O)c1ccccc1 (stereo not given)
9%	CC(=O)N1CCN=C1SCc1ccccc1
5%	CC(C)CCNC(=O)C1CCN(c2nc3ccc(Cl)cc3[nH]2)CC1

(cont.)
VDR inhibitor	canonical_smiles
-17%	CC(C)c1ccc(NC(=O)c2n[nH]c(=O)c3ccccc23)cc1
3%	O=C(Nc1cc(Cl)cc(Cl)c1)C(NCCO)c1ccccc1 (stereo not given)
15%	O=C(NCCCN1CCCC1)c1ccc2c(c1)N(Cc1ccccc1F)C(=O)c1ccccc1S2(=O)=O
-17%	COC(=O)C(N)Cc1ccc(OC)c([N+](=O)[O-])c1 (stereo not given)
?	c1ccc2sc(SN3CCOCC3)nc2c1
-19%	CC(C)(C)c1cc2nc(N)nc(N)n2n1
-8%	Cc1nn(Cc2ccccc2)c(C)c1NC(=O)CSc1nc2sc3c(c2c(=O)n1C)CCC3
-15%	Cc1cc(NC(=O)CSCC(=O)OC(C)C(=O)c2cc(C)c(C)cc2C)no1 (stereo not given)

Some of these compounds in order of their number in VDR inhibitor, ascending.
VDR inhibitor	canonical_smiles
-19%	CC(C)(C)c1cc2nc(N)nc(N)n2n1
-17%	CC(C)c1ccc(NC(=O)c2n[nH]c(=O)c3ccccc23)cc1
-15%	Cc1cc(NC(=O)CSCC(=O)OC(C)C(=O)c2cc(C)c(C)cc2C)no1 (stereo not given)
-8%	Cc1nn(Cc2ccccc2)c(C)c1NC(=O)CSc1nc2sc3c(c2c(=O)n1C)CCC3
3%	O=C(Nc1cc(Cl)cc(Cl)c1)C(NCCO)c1ccccc1 (stereo not given)
15%	O=C(NCCCN1CCCC1)c1ccc2c(c1)N(Cc1ccccc1F)C(=O)c1ccccc1S2(=O)=O

Following part
VDR inhibitor	canonical_smiles
-3%	CCOC(=O)C1(Cc2ccc(OC)cc2)CCN(C(=O)CCc2cccnc2)CC1
7%	CCc1ccccc1NC(=O)COCc1cc(-c2ccco2)on1
0%	CC(=O)c1sc(NC(=O)C2=NN(c3ccccc3)C(=O)CC2)nc1C
1%	COC(=O)c1sc2nc(C)cc(C)c2c1N
-5%	Nc1cc(=O)[nH]c(=O)n1CC1CC1
1%	CCCCN(CC)C(=O)c1c[nH]c2ccc(S(=O)(=O)N(C)c3ccc(Cl)cc3)cc2c1=O
?	CC(C)c1nc(-c2ccc([N+](=O)[O-])cc2)cs1
-17%	COc1cccc(OCCCn2c(-c3ccc(Cl)cc3)nc3ccccc3c2=O)c1

Going on with the list.
VDR inhibitor	canonical_smiles
4%	CCCCCCNC(=O)CCNS(=O)(=O)c1ccc(C)cc1
-3%	Cc1cccc(C)c1NC(=O)N1CCN(c2nc3ccccc3s2)CC1
10%	O=[N+]([O-])c1cc2c(cc1/C=N/NS(=O)(=O)c1ccc(Br)cc1)OCO2
-8%	COc1ccc(S(=O)(=O)Nc2ccccc2C(=O)NCc2cccnc2)cc1
-1%	Brc1ccc(OCc2cn3ccccc3n2)cc1
-16%	Nn1c(SCC(=O)NCc2ccccc2)nncc1=O
12%	Cc1ccc(NC(=O)CSc2nc(NS(=O)(=O)c3ccccc3)cc(=O)[nH]2)cc1
0%	Clc1ccc(-c2nnn(Cc3nc4ccccc4s3)n2)cc1

More compounds follow:
VDR inhibitor	canonical_smiles
11%	CN(CCOc1ccc(-c2ccn(S(=O)(=O)c3cccc4ccccc34)n2)cc1)c1ccccn1
5%	Cn1c(SCC(=O)NC(C)(C)C)nnc1-c1cccc(NC(=O)c2ccccc2F)c1
-10%	CCOC(=O)C1=NN(c2ccccc2)C(=O)C1
-7%	CC(C)C(=O)OCC(=O)Nc1ccc(N=Nc2ccccc2)cc1
8%	COC(=O)c1ccccc1S(=O)(=O)NNC(=O)Nc1ccccc1
-29%	CC(C)N(C(=S)NC1CC2CCC1C2)c1ccccc1 (stereo not given)
4%	COC(=O)Cc1csc(Nc2ccccc2Cl)n1
6%	CCOC(=O)Cc1c(C)nc2c(-c3ccccc3)c(-c3ccccc3)[nH]n2c1=O

(listing goes on)
VDR inhibitor	canonical_smiles
5%	Cn1cccc1C(=O)N1CCC2(CCCN(Cc3nccs3)C2)CC1
-12%	COc1ccc(C(=O)NNC(=O)c2ccccc2[N+](=O)[O-])cc1[N+](=O)[O-]
-16%	CN(C)S(=O)(=O)Oc1cccc(C(=O)Nc2ccc(Cl)cc2)c1
6%	Clc1cccc(-n2ncc3c(N4CCN(Cc5ccccc5)CC4)ncnc32)c1
2%	NC(=O)CC(NC(=O)c1ccccc1)c1ccc(NCc2ccc(F)c(F)c2)c([N+](=O)[O-])c1 (stereo not given)
-13%	COc1cccc(NC(=O)CN2CCN(c3nc(-c4cccc(OC)c4)cs3)CC2)c1
-28%	Cc1cc(-c2n[nH]c(=S)n2/N=C/c2ccc(Cl)c([N+](=O)[O-])c2)n[nH]1
6%	CCOC(=O)C1CCCN(C(=O)c2cc(Cl)ccc2Cl)C1 (stereo not given)

(list continues)
VDR inhibitor	canonical_smiles
2%	COc1cc2c(cc1CNC[C@H]1O[C@@H](n3cnc4c(N)ncnc43)[C@H](O)[C@@H]1O)OCO2
-5%	CN(C)c1ccc(C2NCC(CCl)O2)cc1 (stereo not given)
-1%	CCOC(=O)CN1C(=O)N[C@@H](c2cccc(C(F)(F)F)c2)[C@@H](C(=O)OC)[C@H]1C
?	O=C(O)CCCCCN1C(=O)/C(=C\c2ccncc2)SC1=S
-26%	Cc1ccccc1Cn1nnc(C(=O)Nc2ccc3c(c2)OCCO3)c1N
-19%	S=c1[nH]nc(-c2cccnc2)n1/N=C/C=C/c1ccccc1
-6%	COc1ccc(N=Cc2sc3ccccc3c2Cl)cc1
?	O=S1(=O)CCO[C@H]2Cc3ccccc3[C@H]2N1Cc1ccccc1F

(more compounds)
VDR inhibitor	canonical_smiles
-7%	CCN(CC)c1cc(C)c2cc(NC(=O)c3cc(OC)cc(OC)c3)ccc2n1
-21%	COc1ccc(C2OCC3(CO2)SC(=O)NC3=O)cc1 (stereo not given)
-17%	COc1ccc(OC)c(NC(=O)COC(=O)/C=C/c2ccccc2Cl)c1
-5%	COc1cccc(Nc2c3c(nc4c(-c5ccccc5)c(C)nn24)CCC3)c1
8%	COc1ccc2[nH]c3c(c2c1)CCN1C(=O)C(CC(=O)NCCC2=CCCCC2)C[C@H](C(=O)N2CCCCC2)[C@@]31C (stereo not given in full)
7%	O=C(NCc1ccco1)C1CCN(S(=O)(=O)Cc2ccccc2)CC1
-21%	Cc1cc(NC(=O)c2cccc(Cl)c2)n[nH]1
7%	Oc1c(C(c2cccs2)N2CCN(c3ccc(F)cc3)CC2)sc2ncnn12 (stereo not given)

Carrying on.
VDR inhibitor	canonical_smiles
12%	CSc1ccc(CCNS(=O)(=O)c2c(C)[nH]c(C)c2C(=O)N2CCCCC2)cc1
-1%	CSCCC(NC(=O)c1ccco1)C(=O)OCC(=O)N1c2ccccc2NC(=O)C1(C)C (stereo not given)
-8%	COc1ccccc1-n1c(SCC(N)=O)nc2sc3c(c2c1=O)CCC3
-17%	CCN(C(=O)COC(=O)/C=C/c1ccc(C)o1)c1c(N)n(Cc2ccccc2)c(=O)[nH]c1=O
3%	CCOc1ccc(N2C(=O)CC(Sc3ncccn3)C2=O)cc1 (stereo not given)
-15%	CNc1c([N+](=O)[O-])cnn1-c1cccc(Cl)n1
-17%	O=C(COC(=O)C1=NN(c2ccccc2)C(=O)CC1)NCc1ccccc1Cl
20%	CC1CCCN(C(=O)c2ccc(COc3ccccc3Br)cc2)C1 (stereo not given)

(further entries)
VDR inhibitor	canonical_smiles
?	COCCNc1nc(C)c(C(C)=O)s1
-16%	Cc1ccc(CNC(=O)CCNS(=O)(=O)c2ccc3c(c2)oc(=O)n3C)cc1
-5%	N#Cc1ccc(Cl)cc1NC(=O)COC(=O)[C@H](CCC(N)=O)NC(=O)c1ccc(F)cc1
-8%	Nc1[nH]n2c(=O)c3c(nc2c1N=Nc1ccccc1)CCCC3
-5%	Cc1ccc(NCCCn2cnc3c(OCc4ccccc4)ncnc32)cc1C
17%	Cn1nc(C(=O)Nc2ccccc2C#N)c2c1-c1ccccc1SC2
-17%	O=S(=O)(c1ccc(Br)cc1)N1CCn2c(nc3ccccc32)C1
-17%	COc1ccccc1Nc1c2c(nc3ccc(NC(=O)c4ccc(OC)c(OC)c4)cc13)CCCC2

(listing goes on)
VDR inhibitor	canonical_smiles
-10%	COc1ccc2c(OC)cc(-c3ccccc3)nc2c1
-22%	CC(=O)OCc1c(C)cc(C)c(/C=C(/C#N)C(N)=O)c1C
-4%	O=C1CCCc2cc(S(=O)(=O)NCC3CCC(C(=O)Nc4ccccc4F)CC3)ccc2N1 (stereo not given)
-2%	Cc1ccc(S(=O)(=O)N2C[C@@H]3[C@H]4CC[C@H](C4)[C@@H]3[C@@H](C)[C@H]2c2ccn(Cc3ccccc3)c2)cc1
-1%	Cn1nc(OC(=O)Nc2ccc(F)cc2)cc1C(F)(F)F

Only part of the results is shown. The share of hits here may be higher or lower than overall.
